# DUX4 inh – inhibitors of DUX4-driven ZSCAN4 reporter expression, primary screen, 293T cells, Gaussia and Italica luciferase | 293T-iDUX4 ZSCAN4-Gaussia luciferase reporter, 24 h; active compounds read low | activity change, negative = inhibition, % (no concentration beside the values) | hit rate 0.8% among 37,000 | AID 1224904, 2016;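 active = -10% or lower and over 25 points stronger than a control reporter; inconclusive = -10% or lower with a smaller gap; inactive = above -10%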;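 note: 0% = median of neutral control wells and -100% = median of positive control wells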
# DUX4 inh difference – recorded beside DUX4 inh, whose call it bears; Gaussia minus Italica difference, %; measured here: selective DUX4 reporter inhibition;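 worked out from the two reporters; negative = selective loss of the DUX4 reporter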
# DUX4 inh control – second read-out of DUX4 inh, no call of its own (marks repeat the call); activity change, negative = inhibition, %; measured here: Italica tet-on control reporter;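 0 = neutral control and -100 = positive control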
# * marks the source's active call; other numbers are inactive results; ? = inconclusive; · = not tested or not shown; ! = a repeat was not active. These rows are one share of the data (hit frequency here may not be typical).
# The opening 7 compounds, to show the layout:
# Order of results: DUX4 inh control | DUX4 inh difference | DUX4 inh
C[C@H](CO)N1C[C@H](C)[C@@H](CN(C)C(=O)c2ccc3c(c2)OCO3)Oc2cc(C#Cc3ccccc3F)ccc2S1(=O)=O
    1.5 | -7 | -6
CC=Cc1ccc2n(c1=O)C[C@@H]1[C@@H](CO)[C@H](C(=O)NCCc3ccccc3)N(CCC)[C@H]21 (mixture of isomers)
    -3.8 | 10 | 7
COc1ccc(S(=O)(=O)N2CCC3(CC2)CN(Cc2ccncc2)[C@@H](CO)c2[nH]c4cc(OC)ccc4c23)cc1
    · | · | ?
CCc1cnc(N2[C@H](C#N)[C@H](c3ccc(C4=CCCCC4)cc3)[C@H]2CO)s1
    · | · | ?
CN1C(=O)c2cc(NC(=O)c3ccc(F)c(F)c3)ccc2OC[C@@H]2O[C@H](CC(=O)N3CCCCC3)CC[C@H]21
    4.6 | -2 | 2
O=C(C[C@@H]1C=C[C@@H](NC(=O)c2cccnc2)[C@@H](CO)O1)NCc1ccncn1
    0.2 | 3 | 3
Cc1noc(C)c1S(=O)(=O)N(C)C[C@H]1OCCCC[C@@H](C)Oc2ccc(NS(=O)(=O)c3cccs3)cc2C(=O)N([C@@H](C)CO)C[C@H]1C
    1.4 | 0 | 1

# This part in full (from the top)
# Order of results: DUX4 inh control | DUX4 inh difference | DUX4 inh
C[C@H](CO)N1C[C@H](C)[C@@H](CN(C)C(=O)c2ccc3c(c2)OCO3)Oc2cc(C#Cc3ccccc3F)ccc2S1(=O)=O
    1.5 | -7 | -6
CC=Cc1ccc2n(c1=O)C[C@@H]1[C@@H](CO)[C@H](C(=O)NCCc3ccccc3)N(CCC)[C@H]21 (mixture of isomers)
    -3.8 | 10 | 7
COc1ccc(S(=O)(=O)N2CCC3(CC2)CN(Cc2ccncc2)[C@@H](CO)c2[nH]c4cc(OC)ccc4c23)cc1
    · | · | ?
CCc1cnc(N2[C@H](C#N)[C@H](c3ccc(C4=CCCCC4)cc3)[C@H]2CO)s1
    · | · | ?
CN1C(=O)c2cc(NC(=O)c3ccc(F)c(F)c3)ccc2OC[C@@H]2O[C@H](CC(=O)N3CCCCC3)CC[C@H]21
    4.6 | -2 | 2
O=C(C[C@@H]1C=C[C@@H](NC(=O)c2cccnc2)[C@@H](CO)O1)NCc1ccncn1
    0.2 | 3 | 3
Cc1noc(C)c1S(=O)(=O)N(C)C[C@H]1OCCCC[C@@H](C)Oc2ccc(NS(=O)(=O)c3cccs3)cc2C(=O)N([C@@H](C)CO)C[C@H]1C
    1.4 | 0 | 1
Cc1ccc(-c2ccc([C@@H]3[C@H]4CN(C(=O)c5ccncc5)CC(=O)N4[C@H]3CO)cc2)cc1
    5.8 | 2 | 8
CCCC#Cc1ccc([C@@H]2[C@@H](CO)N3CCCCN(S(C)(=O)=O)C[C@H]23)cc1
    10 | 0 | 10
CCc1nc(N2[C@@H](C#N)[C@@H](c3ccccc3-c3ccccc3C)[C@@H]2CO)sc1C
    -1.4 | 5 | 4
Cc1ccc(-c2ccccc2[C@H]2[C@@H](C#N)N(c3ncc(-c4ccccc4)s3)[C@H]2CO)cc1
    · | · | ?
CCCC#Cc1cnc2c(c1)C(=O)N([C@@H](C)CO)C[C@H](C)[C@@H](CN(C)Cc1ccccc1F)O2
    -1.4 | -2 | -4
CCCN1[C@H](C(=O)N[C@@H](C)c2ccccc2)[C@@H](CO)[C@@H]2Cn3c(ccc(-c4ccc(F)cc4)c3=O)[C@@H]21
    · | · | ?
CCCNC(=O)N1C[C@@H]2[C@H](c3ccccc31)[C@@H](CO)N2C(=O)c1ccncc1
    -1.5 | 0 | -1
COCC(=O)N1[C@H](CO)[C@@H](c2ccc(C#CCC3CCCC3)cc2)[C@@H]1C#N
    0.0 | -2 | -2
C[C@H](O)C#Cc1ccc([C@H]2[C@H](CO)N3CCCCN(CC4CC4)C[C@@H]23)cc1
    0.6 | 6 | 6
Cc1noc(C)c1NC(=O)N(C)C[C@@H]1Oc2ccc(NC(=O)CCCN(C)C)cc2C(=O)N([C@@H](C)CO)C[C@@H]1C
    0.5 | -1 | -1
CCC(=O)N1CCCCN2[C@@H](CO)[C@@H](c3ccc(-c4cccc(C(=O)N(C)C)c4)cc3)[C@@H]2C1
    3.9 | 19 | 23
CCCNC(=O)[C@@H]1[C@@H](CO)[C@@H]2Cn3c(ccc(-c4cccc(F)c4)c3=O)[C@H]1N2C(=O)CC
    0.1 | 6 | 6
CS(=O)(=O)Nc1ccc2c(c1)[C@H]1C[C@@H](CC(=O)N3CCc4ccccc4C3)O[C@@H](CO)[C@H]1O2
    -6.2 | 9 | 3
C[C@H]1CN([C@@H](C)CO)C(=O)c2ccccc2-c2ccccc2CO[C@@H]1CN(C)C(=O)CCC(F)(F)F
    4.7 | 0 | 4
O=C(C[C@@H]1C[C@@H]2c3cc(NC(=O)Cc4ccncc4)ccc3O[C@@H]2[C@H](CO)O1)NCc1ccc(-c2ccccc2)cc1
    · | · | ?
CO[C@@H](CN(C)C(=O)c1ccccc1F)[C@H](C)CN([C@@H](C)CO)S(=O)(=O)c1ccc(F)cc1
    -2.8 | -6 | -8
CCNC(=O)[C@@H]1[C@@H](CO)[C@@H]2Cn3c(cccc3=O)[C@H]1N2C(=O)Nc1cc(F)ccc1F
    2.0 | -5 | -3
COc1ccc(NC(=O)N[C@@H]2CC[C@@H](CCNC(=O)CN3CCOCC3)O[C@H]2CO)cc1
    2.2 | 5 | 8
CO[C@@H](CN(C)S(=O)(=O)c1ccccc1)[C@H](C)CN(C(=O)Nc1ccccc1F)[C@@H](C)CO
    -0.6 | -2 | -3
N#C[C@H]1[C@H](c2ccc(C#CC3CCCC3)cc2)[C@H](CO)N1C(=O)Cc1ccccn1
    3.5 | -2 | 2
CCCNC(=O)Nc1ccc2c(c1)OC[C@H](C)N(C(=O)c1ccccc1F)C[C@@H](C)[C@H](OC)CN(C)C2=O
    4.7 | 3 | 8
CCCNC(=O)N1C[C@@H]2[C@H](c3ccccc31)[C@@H](CO)N2C(=O)C1CCOCC1
    1.4 | -3 | -2
CO[C@H]1CN(C)C(=O)c2cc(C#N)ccc2OCC[C@H]2CC[C@@H](OC)[C@@H](CN(C)C(=O)[C@@H]1C)O2
    -0.7 | 1 | 0
CC=Cc1ccc2n(c1=O)C[C@@H]1[C@@H](CO)[C@H](C(=O)NCCC)[C@H]2N1Cc1ccccc1 (mixture of isomers)
    -0.1 | 5 | 5
Cc1noc(C)c1NC(=O)N(C)C[C@H]1Oc2ccc(NC(=O)CCCN(C)C)cc2C(=O)N([C@@H](C)CO)C[C@H]1C
    -1.5 | 3 | 1
CCCNC(=O)Nc1ccc2c(c1)C(=O)N(C)C[C@H](OC)[C@H](C)CN(Cc1ccccn1)[C@@H](C)CO2
    6.3 | -1 | 5
CO[C@@H]1CN(C)C(=O)c2cc(NC(=O)Nc3c(C)noc3C)ccc2OC[C@@H](C)N(CC2CC2)C[C@@H]1C
    1.0 | 4 | 5
C[C@@H]1CN([C@@H](C)CO)S(=O)(=O)c2ccc(/C=C/c3ccccc3)cc2O[C@@H]1CN(C)C(=O)NC1CCCCC1
    -0.6 | -2 | -3
COc1ccc2c3c(n(C)c2c1)[C@@H](CO)N(C(C)=O)CC31CCN(S(=O)(=O)c2ccccc2)CC1
    -13 | 9 | -4
COc1cccc(NC(=O)C[C@H]2CC[C@@H]3[C@H](COc4ccc(NC(=O)c5ccccc5F)cc4C(=O)N3C)O2)c1
    2.3 | -2 | 0
O=C(C[C@@H]1C[C@@H]2c3cc(NC(=O)NC4CCCCC4)ccc3O[C@@H]2[C@H](CO)O1)NCc1cccnc1
    11 | -18 | -7
CO[C@H]1CN(C)C(=O)c2cc(NC(=O)CC(F)(F)F)ccc2OC[C@@H](C)N(C(C)=O)C[C@H]1C
    -2.9 | 4 | 1
O=C(C1CCC1)N1CCCCN2[C@H](CO)[C@H](c3ccc(C#CC4(O)CCCC4)cc3)[C@@H]2C1
    2.4 | 17 | 19
CCCNC(=O)N1C[C@H](O)COC[C@H]2O[C@@H](CC(=O)NCc3ccncn3)CC[C@@H]21
    12 | -7 | 5
Cc1noc(C)c1S(=O)(=O)N(C)C[C@H]1OCCCC[C@H](C)Oc2ccc(NC(=O)Nc3cccc4ccccc34)cc2C(=O)N([C@@H](C)CO)C[C@@H]1C
    -1.0 | 3 | 2
COc1ccc(S(=O)(=O)Nc2ccc3c(c2)C(=O)N([C@@H](C)CO)C[C@H](C)[C@H](CN(C)Cc2ccc(C(F)(F)F)cc2)OCCCC[C@@H](C)O3)cc1
    2.8 | -2 | 1
N#Cc1ccc(-c2ccc3c(c2)[C@H]2[C@H](CCN2C(=O)c2ccc4c(c2)OCO4)[C@H](CO)N3)cc1
    · | · | ?
O=C(c1ccccn1)N1CC(=O)N2[C@H](CO)[C@H](c3ccc(-c4cccc(F)c4)cc3)[C@@H]2C1
    15 | -6 | 9
CC=Cc1ccc2n(c1=O)C[C@H]1[C@H](CO)[C@@H](C(=O)NCCN3CCCCC3)N(C(C)=O)[C@@H]21 (mixture of isomers)
    8.8 | -11 | -2
N#Cc1ccc(-c2ccc(C3[C@@H]4CN(C(=O)Nc5ccc(C(F)(F)F)cc5)C[C@H]3N4)cc2)cc1 (stereo partly specified)
    -17* | -32* | -49*!
COc1ccc(S(=O)(=O)N(C)C[C@@H]2OCCCC[C@@H](C)Oc3ccc(NC(=O)Cc4ccccc4)cc3C(=O)N([C@@H](C)CO)C[C@H]2C)cc1
    -3.9 | 5 | 1
COc1ccc(-c2cnc3c(c2)C(=O)N([C@H](C)CO)C[C@@H](C)[C@H](CN(C)C(=O)C2CCC2)O3)cc1
    0.8 | -4 | -3
COCC(=O)N1[C@H](CO)[C@@H](c2ccccc2)C12CN(C(=O)c1ccc(F)cc1)C2
    1.5 | 9 | 10
O=C(C[C@@H]1CC[C@@H]2[C@H](COC[C@H](O)CN2Cc2ccccc2)O1)NCc1ccccc1Cl
    10 | -12 | -2
CS(=O)(=O)N1CCCCN2[C@H](CO)[C@H](c3ccc(-c4cccc(C#N)c4)cc3)[C@H]2C1
    -1.6 | 3 | 2
C[C@@H]1CN([C@H](C)CO)C(=O)c2cc(NC(=O)CCCN(C)C)ccc2O[C@H]1CN(C)Cc1ccc(Cl)c(Cl)c1
    -2.4 | 2 | -1
C[C@@H]1CN([C@@H](C)CO)C(=O)c2c(c3ccccc3n2C)-c2ccccc2CO[C@H]1CN(C)Cc1ccc(C(F)(F)F)cc1
    · | · | ?
CN(C[C@@H]1[C@@H](c2ccccc2)[C@H](CO)N1C(=O)c1ccccc1)C(=O)C1CC1
    -3.5 | 1 | -3
COc1ccc(NC(=O)N(C)C[C@H]2Oc3ccc(NC(=O)Nc4cccc5ccccc45)cc3CC(=O)N([C@@H](C)CO)C[C@@H]2C)cc1
    -2.9 | 6 | 3
CCCNC(=O)C[C@@H]1CC[C@@H]2[C@@H](COc3ccc(NC(=O)CC)cc3C(=O)N2C)O1
    0.5 | -5 | -5
CC(=O)N1CC(=O)N2[C@@H](CO)[C@H](c3ccc(-c4cccc(C(=O)N(C)C)c4)cc3)[C@@H]2C1
    22 | -21 | 0
C/C=C/c1ccc([C@H]2[C@@H](CO)N(CC3CC3)[C@H]2CNS(C)(=O)=O)cc1
    8.6 | -9 | 0
CCS(=O)(=O)N1CC2(CN(C(=O)Cc3ccccn3)[C@H](CO)c3[nH]c4cc(OC)ccc4c32)C1
    6.9 | 22 | 29

# New compounds follow:
# Order of results: DUX4 inh control | DUX4 inh difference | DUX4 inh
COCC(=O)N1CC2(C1)CN(C(=O)Cc1ccccc1)[C@H](CO)c1c2c2ccc(OC)cc2n1C
    9.8 | 5 | 15
COc1ccc(NC(=O)N2CC[C@@H]3[C@H]2c2cc(-c4ccc(F)cc4)ccc2N(C)[C@H]3CO)cc1
    · | · | ?
CCN1[C@@H]2c3ccc(-c4cccc(C(=O)N(C)C)c4)c(=O)n3C[C@@H]2[C@@H](CO)[C@@H]1C(=O)OC
    2.4 | -8 | -5
C/C=C/c1ccc([C@@H]2[C@H](CO)N(C(=O)c3cnccn3)C23CN(C(=O)C2CC2)C3)cc1
    0.6 | 11 | 11
CS(=O)(=O)N1CC2(C1)[C@H](c1ccccc1)[C@@H](CO)N2C(=O)C1CCC1
    0.3 | 5 | 6
O=C(Cc1ccccn1)NCC[C@@H]1CC[C@H](NC(=O)Nc2ccc(C(F)(F)F)cc2)[C@H](CO)O1
    · | · | ?
CCNC(=O)[C@@H]1[C@@H](CO)[C@@H]2Cn3c(ccc(C4=CCCCC4)c3=O)[C@@H]2N1Cc1ccc2c(c1)OCO2
    -0.2 | 5 | 5
CN1[C@@H]2Cn3c(ccc(-c4ccc(F)cc4)c3=O)[C@H]1[C@@H](C(=O)Nc1nccs1)[C@@H]2CO
    -2.7 | 3 | 0
O=C(Cc1ccccc1)N1CC(=O)N2[C@H](CO)[C@@H](c3ccc(-c4ccc(F)cc4)cc3)[C@@H]2C1
    11 | -7 | 4
O=C(c1ccc(F)cc1)N1CC(=O)N2[C@H](CO)[C@@H](c3ccc(-c4cccnc4)cc3)[C@@H]2C1
    -2.4 | 3 | 1
O=C(C[C@H]1C=C[C@@H](NC(=O)C2CCC2)[C@@H](CO)O1)NCCCN1CCOCC1
    4.3 | 1 | 5
Cc1noc(C)c1S(=O)(=O)N(C)C[C@@H]1Oc2c(cccc2N(C)C)C(=O)N([C@H](C)CO)C[C@@H]1C
    5.5 | -3 | 2
CN(C)C(=O)C[C@H]1CC[C@H]2[C@@H](COc3ccc(NC(=O)c4ccc(F)cc4)cc3C(=O)N2C)O1
    3.4 | -5 | -1
COc1ccc(-c2ccc3c(c2)[C@H]2[C@H](CCN2C(=O)CN2CCOCC2)[C@@H](CO)N3)cc1
    3.6 | 27 | 31
O=C(C1CCCC1)N1C[C@H]2[C@@H](c3ccccc31)[C@H](CO)N2C(=O)c1cccnc1
    2.9 | 0 | 3
CC(=O)N1[C@H](CO)[C@H](c2ccccc2)C12CN(C(=O)c1ccccn1)C2
    2.4 | 6 | 9

# Assay outcomes deposited in PubChem by Broad Institute.
